gsp agonist = agonists of gsp mutant (McCune-Albright syndrome); gsp mutant cells, cAMP HTRF, 30 min; control for the full effect not named in the record; Potency, µM (series often up to 76.9 µM), for inactives: at the highest dose activation (cAMP increase), hits mostly activators; hit rate 0.13% among 340,000; AID 624287; active = well fitted activation curve with a large enough effect; inconclusive = small, poorly fitted or top-dose-only effect, or another doubt; inactive = no such curve, though single readings can be large or run the other way; cell line not stated here;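 also: phosphodiesterase inhibitor Ro 20-1724 added with compounds to block cAMP breakdown; potency is read from the fitted curve at half-maximal effect; nearly all actives have a fitted effect of over 60% in size; about a fifth of the inactives were tested at one dose only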
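Cells stably selected in G418 were plated at 2000/well, grown 16-24 hr, then given compounds in DMSO with the PDE inhibitor […] (300 uM solution added) for 30 min at 37C; cAMP was read by HTRF.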
TRPV1 PAM = potentiators of human vanilloid receptor 1 (TRPV1) | Q8NER1 | TRPV1-expressing cells, Fluo-8 calcium influx, capsaicin EC20 potentiation; host cell line not named in the record; control for the full effect not named in the record | potentiation, % at 8.33 µM | hit rate 0.02% among 320,000; active means potentiation above 80%; inconclusive means 30% to 80%; inactive means below 30%; also: 0% is about no effect
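Cells expressing TRPV1 were dye-loaded with Fluo-8 and read kinetically: 10 s baseline, 3 min after compound (agonist portion), then 2 min after EC20 capsaicin (allosteric enhancer portion). Calcium-bound dye fluorescence at 480/520 nm.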
ClpP mod = qHTS Assay for Activators of ClpP | ATP-dependent Clp protease proteolytic subunit (Bacillus subtilis (strain 168)), P80244 | purified B. subtilis ClpP, FRET peptide cleavage, 20 min | Potency, µM (highest dose often 57.5 µM), for the others: at the highest dose activity change, negative = active | hit rate 1.9% among 340,000 | AID 651965, 2013; active = well fitted falling curve with a large enough effect; inconclusive = small, poorly fitted or top-dose-only effect; inactive = no such curve, though single readings can be large or run the other way; also: potency is read from the fitted curve at half-maximal effect; the source files actives as falling curves though it sought activators and does not explain the sign; nearly all actives have a fitted effect of over 65% in size; many hits overshoot -100%
Target sequence (P80244 whole entry, looked up): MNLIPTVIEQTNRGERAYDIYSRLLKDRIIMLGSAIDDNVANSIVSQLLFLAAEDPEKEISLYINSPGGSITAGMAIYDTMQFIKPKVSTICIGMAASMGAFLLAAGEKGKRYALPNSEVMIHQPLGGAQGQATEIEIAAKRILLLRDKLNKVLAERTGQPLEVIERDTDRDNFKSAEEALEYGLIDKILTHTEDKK
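ClpP 10 microg/mL final, pH 8 Tris/KCl buffer with BSA, glycerol, Tween-20; compound pinned in; FRET-FV substrate; RT 20 min; Ex320/Em430; ΔFRET vs ADEP 5.8 microM, DMSO, no enzyme.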
Sfp PPTase inh = blocks B. subtilis Sfp PPTase activity; Biochemical Sfp PPTase activity, qHTS; Q9F4F7; Potency, µM, for inactives: max response, negative = inhibition, most hits filed as inhibitors; hit rate 3.5% among 310,000; active = well fitted inhibition curve with a large enough effect; inconclusive = small, poorly fitted or top-dose-only effect, or another doubt; inactive = no such curve, though single readings can be large or run the other way;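 also: the enzyme is Sfp with the accession as filed and its product quenches rhodamine fluorescence; potency is read from the fitted curve at half-maximal effect; 0% = enzyme reaction without inhibitor and -100% = no enzyme wells; top concentration of the series not given in the record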
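With Hepes-Na pH 7.6 buffer containing 10 mM MgCl2, Sfp (15 nM) modified BHQ-2-YbbR (12.5 uM) using rhodamine-CoA (5 uM). Two reads 30 minutes apart at 525/598 nm yielded each well's rate.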
gsp antagonist = gsp mutant antagonism | gsp-mutant cells, cAMP HTRF, 30 min; control for the full effect not named in the record | AID 624288 | hit rate 0.4% among 340,000 | Potency, µM (doses to about 76.9 µM), for inactives: at the highest dose activity change, negative = inhibition, hits mostly inhibitors; active = falling curve of any shape with a large fitted effect; inconclusive = falling curve, mostly with a smaller effect; inactive = flat or rising curve; cell line not stated here;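 also: intracellular cAMP measured with PDE inhibitor Ro 20-1724 present during compound exposure; potency is read from the fitted curve at half-maximal effect; % is scaled to controls: 0 for no effect and ±100 for the full control effect; nearly all actives have a fitted effect of over 65% in size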
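G418-selected cells were plated in DMEM/10% FBS for 16-24 h at 37C, then treated with compounds plus the PDE inhibitor […] (300 uM solution added) for 30 min at 37C. Intracellular cAMP was measured by HTRF after 30 min lysis at room temperature.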
Menin MLL FP FL = menin-MLL binding inhibition, fluorescein peptide; Fluorescence polarization, fluorescein-MLL peptide displacement from menin; FP activity change, % at 61.4 µM; 290,000 tested, under 10 active; inconclusive = falling polarisation curve, or a change in total fluorescence; inactive = total fluorescence flat and polarisation flat or rising; no compound was filed as active; the % refers to the polarisation; negative = inhibition;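 also: % of control where 0% means no effect; inhibitors lower the polarisation; unlabelled MLL peptide was the positive control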
D2 PAM = human D2 receptor positive allosteric modulation. AID 624464. potentiation, % (test concentration not listed). DiscoveRx D2 beta-arrestin cells, luminescence, 90 min; 100% = 57 uM dopamine signal. hit rate 0.23% among 360,000; active = potentiation of 50% or more; inconclusive = 30% to 50%; inactive = 30% or less;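 also: compound concentration not given in the record; tested on top of an EC20 dose of dopamine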
Target sequence (P14416 whole entry, looked up): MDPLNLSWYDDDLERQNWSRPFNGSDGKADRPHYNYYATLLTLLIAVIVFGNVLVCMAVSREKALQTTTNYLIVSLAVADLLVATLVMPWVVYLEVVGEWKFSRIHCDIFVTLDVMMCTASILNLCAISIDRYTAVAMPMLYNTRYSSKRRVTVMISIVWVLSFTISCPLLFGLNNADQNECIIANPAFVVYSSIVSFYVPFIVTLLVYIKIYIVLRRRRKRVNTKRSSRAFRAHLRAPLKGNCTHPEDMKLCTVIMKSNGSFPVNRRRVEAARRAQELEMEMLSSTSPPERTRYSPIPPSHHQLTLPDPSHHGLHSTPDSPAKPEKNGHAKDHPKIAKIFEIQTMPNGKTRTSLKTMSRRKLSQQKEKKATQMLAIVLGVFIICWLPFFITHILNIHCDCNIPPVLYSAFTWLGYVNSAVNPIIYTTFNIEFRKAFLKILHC
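D2 cells co-treated with compound plus 50 nM dopamine (EC20) for 90 min at 37 deg C to detect potentiation. Beta-arrestin recruitment was read as enzyme-fragment luminescence after 1 h at ambient temperature. Full response was set by 57 uM dopamine.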
* hit, by the source's call; ? = inconclusive; · = not tested or not shown; & = joins results of further samples; [ ] = dose if it differs, or a comment.

structure	gsp antagonist	TRPV1 PAM	gsp agonist	ClpP mod	Menin MLL FP FL	D2 PAM	Sfp PPTase inh
CC(C)OCCCNC(=O)C1CC(=O)N(CCc2ccc(F)cc2)C1 (stereo not given)	9%	10	-44%[inhibitor]	·	5.1	-8	21%
COc1ccc(-c2csc(NC(=O)CCn3cnc4ccccc4c3=O)n2)cc1OC	1%	4	28%	-0.3%	5.0	2	-29%
Cc1ccc2c(c1)c1c3n2CCN(CC#N)C3CCC1 (stereo not given)	5%	0	3%	·	2.4	-2	13%
O=C(O)CCn1c(C2CCCCC2)nc2ccccc21	-2%	6	-35%[inhibitor]	-0.7%	-0.9	-8	-8%
CCn1c(SCC(=O)Nc2ccc(OC)c(OC)c2)nnc1-c1cnccn1	3%	-4	-4%	-0.2%	1.4	-5	25%
COc1cc(/C=C/C(=O)Nc2nnc(C(C)(C)C)s2)cc(OC)c1OC	-11%	?	-4%	32µM*	12	7	50µM*
O=C(N[C@@H](Cc1ccccc1)C(=O)N1CCC2(CC1)NCCc1[nH]cnc12)c1cccc(Br)c1	6%	8	22%	-2.0%	·	-13	-3%
O=C(C[n+]1cc(-c2ccc(Br)cc2)n2c1CCCCC2)c1ccccc1	0%	14	2%	·	?	-10	-2%
Cn1ncc2c(Nc3ccc(Cl)cc3)ncnc21	4%	-7	?	0.7%	-4.2	-11	26%
O=C(Nc1ccccc1)C1CCOC1=O (stereo not given)	-5%	·	-11%	1.7%	·	-1	·
O=C(COC(=O)c1ccc(S(=O)(=O)NCc2ccco2)cc1)NCCC1=CCCCC1	-7%	0	0%	0.1%	3.6	-15	-3%
COc1cc(S(=O)(=O)N2CCN3CCCC3C2)ccc1-n1cnnn1 (stereo not given)	-6%	-7	-37%[inhibitor]	-0.8%	1.5	-5	5%
CO[C@H]1[C@@H]2C=CO[C@@H](O[C@H]3O[C@@H](CO)[C@H](O)[C@@H](O)[C@@H]3O)[C@@H]2[C@@]2(CO)O[C@@H]12	13%	-5	·	1.2%	·	-1	·
CCCCn1c(=O)c2c(O)cc(=O)oc2c2ccccc21	-13%	12	?	-4.1%	8.5	-17	7%
O=C(Cc1ccc(S(=O)(=O)N2CCOCC2)s1)N1CCN(S(=O)(=O)c2ccccc2[N+](=O)[O-])CC1	-13%	·	-13%	0.3%	·	-2	·
Cc1ccccc1CS(=O)(=O)c1nnc([C@H](Cc2ccccc2)NC(=O)OC(C)(C)C)o1	22%	18	-59%[inhibitor]	1.2%	2.2	-33	7.9µM*
CCCCC(CC)CNS(=O)(=O)c1ccc2c(c1)CCN2C(=O)CCC(=O)O (stereo not given)	-13%	-1	0%	0.8%	5.9	-11	18%
Cc1ccc(OCCC(=O)OCC(=O)c2c(N)n(C)c(=O)n(C)c2=O)cc1	9%	6	-4%[15.4 µM]	?	·	-6	·
CCCCn1c(=O)c(-c2ccccc2)c(O)c2ccccc21	5%	6	?	-26%	0.1	-16	17%
CCN1C(=O)[C@H]2[C@@H](c3ccc(C)cc3)N[C@]3(CCCN(CCC(C)C)C3=O)[C@H]2C1=O	·	·	-50%[inhibitor]	0.0%	·	-1	·
COC(=O)c1ccc(NC(=O)CSc2nnc(-c3ccccc3Br)n2-c2ccccc2)cc1	9%	·	-10%[15.4 µM]	·	·	-2	·
CCOC(=O)c1[nH]c2c(c1C)C(=O)CC(c1ccc(OC)c(OC)c1)C2 (stereo not given)	-8%[15.4 µM]	-2	-15%	-0.5%	1.2	21	9%
CCN(CC(=O)Nc1ccc(OC)cc1)C(=O)C1CCN(C(=O)c2ccc(Cl)cc2)CC1	-10%	3	-13%	-3.4%	·	-2	·
CN(C(=O)c1ccc(S(=O)(=O)c2cccc(Cl)c2)c([N+](=O)[O-])c1)C1CCCCC1	?	-2	-6%	1.1%	1.9	3	7%
CNc1ccc(C(=O)OCC(=O)NCc2ccc3c(c2)OCO3)cc1[N+](=O)[O-]	3%	11	-18%	-0.5%	·	-5	·
COC(=O)[C@@]1(Cc2ccc(F)cc2)[C@H]2c3cc(C(=O)N(C)C)n(CCc4ccc(OC)c(Br)c4)c3C[C@H]2CN1C(=O)c1ccccc1	-30%	1	·	2.5%	10&5.8	-10	27%&23%
COc1cccc(NC(=O)CN(C)CC(=O)Nc2ccc3c(c2)CCC3)c1	-10%	8	?	1.3%	-5.0	-2	8%
Cc1ccc(CN2CCNC(=O)C2CC(=O)NCCCn2nnc3ccccc32)cc1 (stereo not given)	·	·	-23%	-12%	·	-10	·
O=C(CSc1nnc(-c2ccccc2)n1Cc1ccco1)Nc1ccc2c(c1)OCCO2	-6%	8	11%	-2.1%	1.7	-13	45µM*
CN(CCC(=O)c1ccccc1)CCC(=O)c1ccccc1	10%	-7	-26%	·	-14	-13	11%
COc1ccc(N2CCN(C(c3ccccc3)c3sc4nc(C)nn4c3O)CC2)cc1 (stereo not given)	3%	-5	-21%	-1.4%	8.1	-3	-22%
Cc1cc(=O)oc2cc(OCCSCCN3CCOCC3)ccc12	-4%	?	12%	?	-0.6	-4	9%
CCn1cc(C(=O)O)c(=O)c2cnc(N3CCN(C(=S)Nc4ccc(F)cc4)CC3)nc21	0%	20	3%	-12%	5.8	-4	-13%
Cc1cnc(C(=O)N2CCCC(C(=O)c3cccc(OC(C)C)c3)C2)cn1 (stereo not given)	-2%	-8	-42%[inhibitor]	-4.0%	2.4	-6	24%
CCn1c(N)c(C(=O)N2CCOCC2)sc1=S	7%	3	?	-0.2%	1.7	-15	45µM*
COC(=O)[C@H]1C[C@@H]1[C@H](NC(=O)c1ccccc1)c1ccccc1	10%	11	·	0.8%	-0.8&-1.0	-5	3%&14%
Cc1cc(C(=O)COC(=O)C2=NNC(=O)CC2)c(C)n1CCc1ccccc1	7%	-38	-3%	1.6%	7.1	-3	5%
COCCn1nnnc1CN1C2CCCC1CC(NC(C)=O)C2 (stereo not given)	6%	-19	-19%	-1.3%	-1.3	11	16%
COc1ccc(CNCCNC(=O)c2cccs2)cc1OC	10%	10	29%	·	-3.8	-12	-8%
Cn1ncc2c(O/N=C(\N)c3ccc(C(C)(C)C)cc3)ncnc21	8%	-3	10%[15.4 µM]	·	2.0	85*	-2%
C=CCOC(=O)C1=C[C@@H](c2ccc3c(c2)OCO3)C[C@@H](OCc2ccc(CO)cc2)O1	-11%	-17	·	16%	1.3	-10	-12%
CCOc1ccc2nc(SCC(=O)NCc3ccc(S(N)(=O)=O)cc3)sc2c1	-16%	-1	-22%	1.1%	0.7	-3	3%
C=CCNc1nc(Cl)nc(Nc2ccccc2)n1	-5%	4	-24%	0.2%	-1.7	-7	14%
CCCOC(=O)C1=C(C)NC(=O)NC1c1ccc(Br)s1 (stereo not given)	2%	9	-6%[15.4 µM]	·	-2.4	-1	-3%
O=c1oc2ccccc2n1CSC1=NCCS1	-1%[15.4 µM]	-21	-27%	0.2%	-0.6	-12	-1%
CN1CCN(C(=O)N2c3ccccc3C=Cc3ccccc32)CC1	-2%	-11	-6%	-0.5%	-0.4	-10	-5%
Nc1ccc2[nH]c(=S)sc2c1	-27%	·	17%	·	·	-2	·
Nc1ccncc1N	0%	11	·	-8.5%	2.6	-1	12%
COc1ccc(N(CC(=O)NCc2ccc(F)cc2)S(=O)(=O)c2c(C)noc2C)cc1	-10%	-18	14%	0.4%&1.3%	·	-9	17%
CN(C[C@H](Cc1ccccc1)N(C[C@H](Cc1ccccc1)N(CCC(C)(C)C)N=O)N=O)N=O	0%	22	0%	-2.8%	-0.7	-11	12%

3 entries out of the list above, sorted by the number in Sfp PPTase inh, rising:
molecule | gsp antagonist | gsp agonist | Menin MLL FP FL | D2 PAM | Sfp PPTase inh
Cc1ccccc1CS(=O)(=O)c1nnc([C@H](Cc2ccccc2)NC(=O)OC(C)(C)C)o1 | 22% | -59%[inhibitor] | 2.2 | -33 | 7.9µM*
O=C(CSc1nnc(-c2ccccc2)n1Cc1ccco1)Nc1ccc2c(c1)OCCO2 | -6% | 11% | 1.7 | -13 | 45µM*
COc1cc(/C=C/C(=O)Nc2nnc(C(C)(C)C)s2)cc(OC)c1OC | -11% | -4% | 12 | 7 | 50µM*

Continuation.
structure	gsp antagonist	TRPV1 PAM	gsp agonist	ClpP mod	Menin MLL FP FL	D2 PAM	Sfp PPTase inh
CN(Cc1ccccc1)C(=O)CN1C(=O)NC2(CCCC2)C1=O	7%	10	4%	0.3%	·	3	·
Cc1occc1C(=O)NNC(=O)Nc1ccc(F)cc1F	-1%	?	-6%	?	4.8	-7	6%
CN(C)S(=O)(=O)c1cccc(C(=O)NCC2(N3CCOCC3)CCCCC2)c1	2%	-10	?	0.2%	-4.1	-12	0%
Cc1cccc(OC(C)C(=O)N/N=C\c2ccncc2)c1 (stereo not given)	1%	-21	-2%	·	0.3	-2	-2%

Sorted by molecular weight (low to high): three of the compounds above
structure	gsp antagonist	TRPV1 PAM	gsp agonist	ClpP mod	Menin MLL FP FL	D2 PAM	Sfp PPTase inh
Cc1cccc(OC(C)C(=O)N/N=C\c2ccncc2)c1 (stereo not given)	1%	-21	-2%	·	0.3	-2	-2%
Cc1occc1C(=O)NNC(=O)Nc1ccc(F)cc1F	-1%	?	-6%	?	4.8	-7	6%
CN(C[C@H](Cc1ccccc1)N(C[C@H](Cc1ccccc1)N(CCC(C)(C)C)N=O)N=O)N=O	0%	22	0%	-2.8%	-0.7	-11	12%

Bioassay records deposited in PubChem by National Center for Advancing Translational Sciences (NCATS).
